# HNF4A DNA FP: change in binding of human HNF4A to DNA, primary screen, biochemical, fluorescence polarization, FITC-DNA; AID 1224865, 2016; activity change, % at 10 µM; 1 h; 360,000 tested, 0.3% active; in the data active = activity change above about 30%, passing the limit was not always enough;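 note: controls were the assay level and a saturating level of protein; the project sought stronger binding though the title names inhibitors; some compounds called inactive have numbers as strong as hits; positive values seem to mean higher polarization but the record does not say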
# Bfl-1 A1 inh: caspase 3/7 activation in MEF A1-2A-BIM cells, primary screen, A1 inhibitor project, cell-based, luminescence, HTS; Caspase-Glo 3/7 luminescence, 3 h; percent of clofoctol response, vehicle zero; caspase activation, % (no concentration beside the values); 330,000 tested, 0.066% active;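 active = over half of replicate activation scores above 10%, or exactly half above 10 with the replicate mean above 10; inconclusive = replicate mean below 10 yet half the replicates above 10; inactive = over half of replicates below 10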;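 note: wells of about 30 µL received 50 nL stock; many hits fall short of the cut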
# Ecoli growth: E. coli growth inhibition, primary screen, OD600. Escherichia coli growth, 23 h; active compounds read low. OD600 absorbance (test concentration not listed). 330,000 tested, 0.21% active;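 active = OD600 absorbance below the run mean of sample wells minus 3.6 SD, in any replicate, cut at about 0.56 in these data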;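 note: stock transfer was 300 nL into about 60 µL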
# LANA-H2A inh: blockers of LANA interaction with H2A/H2B – biochemical, FP readout, HTS, primary screen. AID 2629, 2010. inhibition, % (test concentration not listed). 320,000 tested, 0.6% active. Protein LANA1 (Human herpesvirus 8 type P (isolate GK18)), Q9QR71. cell-free LANA-H2A/H2B peptide, fluorescence polarization; in the data active = inhibition mostly above about 10%, no sharp cut-off; inactive = mostly below about 6.7%;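 note: stock transfer was 7.5 nL into about 10 µL; 0% = median of vehicle wells and 100% = median of positive control wells; one replicate is shown; the record names a cut of 25% in any replicate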
# Target sequence (Q9QR71 whole entry, looked up): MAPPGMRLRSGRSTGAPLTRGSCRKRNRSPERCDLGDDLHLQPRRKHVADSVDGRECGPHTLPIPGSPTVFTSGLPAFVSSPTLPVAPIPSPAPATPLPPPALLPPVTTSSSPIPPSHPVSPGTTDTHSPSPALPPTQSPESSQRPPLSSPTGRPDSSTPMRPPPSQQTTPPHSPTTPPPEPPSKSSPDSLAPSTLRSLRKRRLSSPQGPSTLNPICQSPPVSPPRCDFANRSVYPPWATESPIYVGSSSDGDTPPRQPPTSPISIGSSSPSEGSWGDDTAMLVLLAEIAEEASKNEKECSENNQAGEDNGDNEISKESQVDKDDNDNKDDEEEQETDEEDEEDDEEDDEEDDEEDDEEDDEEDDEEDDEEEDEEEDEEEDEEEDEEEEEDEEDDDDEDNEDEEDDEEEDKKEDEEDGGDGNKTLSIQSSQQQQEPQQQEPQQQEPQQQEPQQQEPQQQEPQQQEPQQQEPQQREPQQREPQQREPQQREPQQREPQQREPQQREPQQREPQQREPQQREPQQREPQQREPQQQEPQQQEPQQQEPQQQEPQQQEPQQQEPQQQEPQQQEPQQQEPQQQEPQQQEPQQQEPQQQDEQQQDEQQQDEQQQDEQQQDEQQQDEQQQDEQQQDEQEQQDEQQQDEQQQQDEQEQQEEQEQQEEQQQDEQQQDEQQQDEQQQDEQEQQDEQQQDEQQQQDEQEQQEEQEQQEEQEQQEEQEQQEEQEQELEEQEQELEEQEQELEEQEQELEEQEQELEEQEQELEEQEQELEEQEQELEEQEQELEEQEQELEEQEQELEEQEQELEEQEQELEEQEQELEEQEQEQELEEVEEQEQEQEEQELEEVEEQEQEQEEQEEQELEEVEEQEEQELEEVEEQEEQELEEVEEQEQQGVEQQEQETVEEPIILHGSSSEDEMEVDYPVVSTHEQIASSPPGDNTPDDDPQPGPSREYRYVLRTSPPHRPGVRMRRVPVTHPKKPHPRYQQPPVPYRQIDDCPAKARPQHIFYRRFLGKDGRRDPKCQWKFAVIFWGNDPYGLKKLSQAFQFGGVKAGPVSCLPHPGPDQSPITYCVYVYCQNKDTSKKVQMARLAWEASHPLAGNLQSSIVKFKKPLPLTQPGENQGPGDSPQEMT
# UCH37 inh: inhibitors of human UCH37 deubiquitinase, primary screen, biochemical, Ub-AMC cleavage, fluorescence. Ubiquitin carboxyl-terminal hydrolase isozyme L5 (Homo sapiens), Q9Y5K5. purified proteasome/UCH37. inhibition, % (test concentration not listed). 330,000 tested, 0.33% active;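 active = mean of two replicates above 20%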;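 note: 0% = compound-free wells with enzyme and 100% = wells lacking proteasome; stock transfer was 100 nL into about 20 µL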
#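 Material: Human UCH37 enzyme supplied as purified proteasome complex | Schedule: 30 min compound-proteasome preincubation then 25 min substrate reaction, room temperature | Detection: AMC fluorescence from Ub-AMC cleavage, excitation 355 nm, emission 460 nm | Benchmarks: Wells without proteasome as full block, compound-free enzyme plus substrate as uninhibited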
# Beta2AR agonist: beta2AR agonists driving receptor internalization, primary screen, cell-based, FAP fluorogen, flow cytometry | AID 504454, 2011 | 340,000 tested, 0.43% active | Beta-2 adrenergic receptor (Homo sapiens), P07550 | response, % (no concentration beside the values) | Am2.2-beta2AR cells; reference of the scale not given here;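 active = response above a set limit, near 3 SD of response in nonfluorescent compounds, cut at about 42% in these data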;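 note: stock transfer was 100 nL into about 11 µL; a reference agonist was the positive control; negative values mostly stem from fluorescent compounds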
# Vif TR-FRET: inhibitors of Vif binding to APOBEC3G peptide, primary screen, biochemical, TR-FRET, GST-Vif 1-94, biotin-A3G peptide, dose response retest (AID 1117319); Virion infectivity factor (Human immunodeficiency virus type 1 group M subtype B (isolate …; TR-FRET GST-Vif / biotin-A3G peptide binding; higher % means a stronger effect; test concentration not given here; strong numbers were not always called active; inhibition, %, or IC50 in µM where a hit was titrated; 260,000 tested, 0.57% active;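 active = above the screen mean plus three standard deviations and confirmed in dose response; inconclusive = results disagree or hit not tested in dose response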;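 note: Vif residues 1-94 fused to GST binding biotinylated APOBEC3G peptide 110-148; 0% = full assay without inhibitor and 100% = GST in place of GST-Vif; retest series ran down from 100 µM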
# Numbers without * were called inactive; i = inactive; ? = inconclusive; · = no result given.
SMILES,HNF4A DNA FP,Bfl-1 A1 inh,Ecoli growth,LANA-H2A inh,UCH37 inh,Beta2AR agonist,Vif TR-FRET
Cn1nc(OCC(N)=O)ccc1=O,4.0,1.3,0.721,-1.1,2.4,-8.0,21.5%
O=C(Nc1cccc(Cl)c1N1CCOCC1)c1cccnc1Cl,1.6,2.4,0.663,-2.6,3.2,-12.2,2.0%
C/C(CCc1ccc2c(c1)OCO2)=N\NC(=O)c1ccccc1Cl,0.0,1.2,·,0.9,·,-4.7,-15.0%
Cc1sc2nc(COC(=O)c3ccc(N4CCCC4)c([N+](=O)[O-])c3)[nH]c(=O)c2c1C,28.1,-0.1,0.681,1.7,-0.8,-36.4,·
C[C@@H](NC(=O)[C@@H]1Cc2ccccc2CN1)C(=O)Nc1ccc2c(c1)OCCO2,-1.7,-0.1,0.608,-6.2,1.1,9.6,·
CCCNC(=O)CN1C(=O)COc2ccc(S(=O)(=O)N3CC(C)CC(C)C3)cc21 (stereo unspecified),-0.4,-1.2,0.691,-1.2,2.0,-4.8,·
Cn1c2ccc(F)cc2c2ncn(CCCN(CCO)CCO)c(=O)c21,-2.6,-0.3,0.71,-3.2,-118.4,-22.2,2.9%
CCOC(=O)Cc1c(Sc2ccccc2)c2ccccc2n1C,-2.5,0.9,0.672,-4.4,4.8,-2.6,5.5%
S=C(Nc1ccccc1Cl)N(Cc1ccccc1)Cc1ccccn1,-0.4,0.8,0.742,-3.2,-0.8,6.3,4.0%
CC[C@]12c3[nH]c4ccc(Cl)cc4c3CCN1C(=O)[C@@H](CC(=O)NCCCN(C)C)C[C@@H]2C(=O)N1CCN(C(=O)C2CC2)CC1,1.2,·,0.691,·,1.2,-5.2,1.3%
COc1ccc(-c2cc(CNC(C)=O)on2)cc1,1.8,-0.9,0.789,-10.5,3.8,3.9,10.8%
Nc1ncnc2c1ncn2[C@@H]1O[C@H](CNC(=O)[C@@H](N)Cc2ccc(C(F)(F)F)cc2)[C@@H](O)[C@H]1O,3.4,·,0.692,·,3.4,5.2,·
O=C(CNc1ccccc1)N/N=C/c1ccc2c(c1)OCO2,-0.6,1.2,·,-1.0,·,-0.1,·
Cc1ccc(S(=O)(=O)NCCNC(=O)C2CCCNC2=O)cc1 (stereo unspecified),-1.1,-0.3,0.731,5.1,-1.3,-7.6,0.8%
N#C/C(=C(/O)COC(=O)c1ccc(Cl)c(S(=O)(=O)N2CCOCC2)c1)c1nc2ccccc2[nH]1,0.6,-0.9,0.678,-5.1,2.7,-3.2,2.3%
Nc1nc(SCc2ccccc2Cl)ns1,-0.7,-0.1,0.64,-2.8,4.0,3.0,-5.2%
O=C(COC(=O)CN1C(=O)C2CCCCC2C1=O)Nc1cc(F)ccc1F (stereo unspecified),0.3,·,0.686,·,4.9,-1.8,16.8%
Cc1csc(Sc2ccc(S(=O)(=O)N3CCCC3)cn2)n1,0.8,0.3,0.622,-2.6,-1.9,5.2,11.1%
O=C1C=C(N2CCN(c3ccccn3)CC2)C(=O)c2c(O)ccc(O)c21,-4.2,·,·,·,·,7.4,16.8%
Nc1ncnc2nc(SCc3ccc(Cl)cc3Cl)[nH]c12,3.6,0.3,0.727,-3.4,3.8,-6.1,4.6%
CN(C(=O)CN(CCO)CC(=O)N(C)C(C)(C)Cc1ccccc1)C(C)(C)Cc1ccccc1,-2.0,1.3,0.677,-0.4,1.0,16.7,·
O=C1c2ccccc2C(Nc2cccc(C(F)(F)F)c2)N1Cc1ccco1 (stereo unspecified),-1.1,-0.1,0.685,1.6,4.2,-13.5,5.1%
COc1cc(S(N)(=O)=O)c(OC)cc1N,-6.5,1.7,0.688,1.4,1.0,11.2,1.0%
O=C1CN(C(=O)c2ccccc2F)C(c2ccccc2)c2cc(Cl)ccc2N1 (stereo unspecified),-3.8,0.8,0.646,-1.6,5.6,-3.2,-7.2%
COc1ccc(C(c2nnnn2Cc2cccs2)N2CCN(c3ccc(F)cc3)CC2)cc1OC (stereo unspecified),-1.9,1.9,0.754,-3.9,0.7,-5.4,6.9%
COc1cc(/C=N/NC(=O)c2nnn(-c3nonc3N)c2C(C)C)ccc1O,-4.2,0.8,·,-12.2,·,5.0,·
COc1ccc(C(=O)OCc2c(-c3ccccc3)ncc3ccccc23)cc1,1.8,1.3,0.746,3.5,2.0,13.2,·
Cc1cccc(N2CCN(C(=O)c3cccc(N4C(=O)C5C6C=CC(C6)C5C4=O)c3)CC2)c1C (stereo unspecified),-2.8,-0.1,0.714,1.9,5.8,8.2,·
OCC[C@@H]1C[C@@H](O)[C@H](O)[C@]2(Cc3ccccc3O2)O1,2.1,0.5,·,-2.2,2.5,1.3,·
[O-][n+]1c2ccccc2c2n1CCN=C2c1ccc(Cl)cc1,-1.4,-0.4,0.626,3.0,-0.7,1.1,·
CC1CN(C(=O)c2cc3cc([N+](=O)[O-])ccc3s2)CC(C)O1 (stereo unspecified),5.7,0.6,0.673,0.6,3.8,-22.2,-5.1%
O=C(Nc1ncc(Cc2ccccc2Cl)s1)C1=NCCN1,2.4,1.0,0.637,-5.8,3.9,3.0,·
Cc1ccc(NC(=O)CN2C(=O)NC(Cc3ccccc3)C2=O)cc1Cl (stereo unspecified),3.2,0.7,0.703,-1.8,3.4,8.0,-5.7%
COCCn1c(=O)[nH]c2cc(C(=O)N3CCN(Cc4ccc5c(c4)OCO5)CC3)ccc2c1=O,-0.2,·,0.75,·,-3.4,3.9,·
O=C(COC(=O)c1cccc(F)c1)NC(=O)NCc1ccccc1,0.0,-0.2,0.705,-0.5,1.0,0.3,·
COc1ccc(C2(C)NC(=O)N(CC(=O)Nc3ccc4c(c3)CCC4)C2=O)cc1OC (stereo unspecified),6.1,-1.2,0.683,-0.6,3.5,-2.2,·
CCOC(=O)N1CCC(N2C(=O)c3ccccc3C2Nc2ccc(S(=O)(=O)N3CCOCC3)cc2)CC1 (stereo unspecified),2.9,-0.3,0.619,5.6,3.7,·,-1.8%
Cc1cnn(Cc2ccccc2)c1N,-2.8,0.7,0.665,-1.8,-0.2,0.0,-3.9%
CCCn1c(C(O)c2cc(OC)c(OC)c(OC)c2)nc2ccccc21 (stereo unspecified),4.3,1.3,0.619,-1.3,0.5,4.0,-8.4%
C[C@H](NC(=O)N1CCn2c1nc1ccccc12)C(=O)NCc1ccco1,-0.3,2.1,0.672,3.0,-1.6,-7.5,·
CCOC(=O)C1=C(N)Oc2cc(C)[nH]c(=O)c2C1c1ccncc1 (stereo unspecified),0.2,-0.3,0.753,-6.7,-1.4,6.7,22.0%
O=c1[nH]c(=O)n(C2CC(O)C(CO)O2)cc1I (stereo unspecified),1.1,·,0.659,·,·,-10.7,0.4%
CNC(=O)[C@@H]1C[C@H]1[C@@H](NC(=O)CNC(=O)OCc1ccccc1)c1ccccc1,·,0.0,·,0.4,3.4,·,·
O=C1CC(N2CCN(c3ccccc3)CC2)C(=O)N1c1ccc2c(c1)OCCO2 (stereo unspecified),0.5,0.7,0.714,-6.0,4.6,2.5,24.5%
CC1(c2ccc(Cl)cc2)NC(=O)N(CC(=O)NCCC2=CCCCC2)C1=O (stereo unspecified),-2.6,0.7,0.713,-1.6,3.0,0.3,4.6%
CN(c1ccccc1)S(=O)(=O)c1cccc(C(=O)NCc2ccccc2CN2CCCC2)c1,7.8,0.1,0.684,1.1,-1.1,7.2,-5.9%
COC(=O)/C=C1/S/C(=N/NC(=O)c2ccccc2C)NC1=O,-3.5,1.0,0.658,-1.5,13.7,-4.9,7.8%
O=C(Cc1ccc(S(=O)(=O)N2CCOCC2)s1)NCCOc1ccccc1,-1.8,1.0,0.634,-0.9,0.4,-3.4,-2.5%
C/C(=N\NC(=O)c1cccc(S(=O)(=O)N2CCCC2)c1)c1ccccc1F,-0.2,-0.4,·,-3.1,·,-2.9,-10.8%
CC(C)c1ccc(C2/C(=C(/O)c3ccccc3)C(=O)C(=O)N2CCCN2CCOCC2)cc1 (stereo unspecified),0.0,-0.4,0.666,-0.6,11.3,-4.0,·
O=C(CC1C(=O)NCCN1Cc1ccc(F)cc1Cl)NC1CCCCCCC1 (stereo unspecified),4.3,0.5,0.672,-3.5,-1.7,4.8,?
CC(C)Cc1nc(S(=O)(=O)c2ccc(Cl)cc2)c(N2CCOCC2)o1,-3.4,0.5,·,1.2,3.7,0.0,0.3%
CN(C)CCOC(=O)c1ccc2c(c1)S(=O)(=O)c1ccccc1C2=O,4.5,0.9,0.726,-0.4,0.8,-5.6,-5.2%
COc1ccc(N2CCN(C(=O)CSc3nnc(NC(=O)C4CC4)s3)CC2)cc1,-6.5,0.9,0.721,-4.2,1.8,0.7,·
CCOc1cc(/C=C2\SC(=NC)N(C)C2=O)c(Br)cc1OC(C)=O,8.3,-0.3,0.66,-15.2,0.9,5.8,·
Cc1c(NC(=S)N2CCN(c3ccc(F)cc3)CC2)c(=O)n(-c2ccccc2)n1C,1.7,0.7,0.691,0.0,1.7,4.8,10.8%
NC(=O)C1CCN(c2ncnc3c2c(-c2ccccc2)cn3-c2ccccc2)CC1,2.5,-0.7,0.712,-0.2,7.6,1.3,-0.8%
Cc1cc(SCc2cc(=O)[nH]c3ccccc23)nc2ccccc12,2.0,-1.0,0.664,1.9,4.0,-6.4,20.8%
CC1(OC(=O)CCc2ccccc2)C(=O)C=C2C=C(c3ccc(C#N)cc3)N(CC3CC3)C=C2C1=O (stereo unspecified),0.7,0.0,·,-0.6,·,-6.1,-1.4%
CC1C(=O)N2CCCc3cc(NC(=O)C(=O)NCCCc4ccccc4)cc1c32 (stereo unspecified),1.6,-0.1,0.707,-0.8,3.1,-0.2,6.2%

# The list goes on.
SMILES,HNF4A DNA FP,Bfl-1 A1 inh,Ecoli growth,LANA-H2A inh,UCH37 inh,Beta2AR agonist,Vif TR-FRET
CCCCCC(C)n1[nH]c(=O)c2c(C)cc(C)nc21 (stereo unspecified),-0.6,-0.3,0.748,1.0,2.7,-8.4,1.8%
Cc1ccc(-c2cc(C(=O)O)c3ccccc3n2)s1,2.3,-4.5,0.645,6.7,i,-1.5,-4.9%
CCN(CC(=O)Nc1c(F)cccc1F)C(=O)Cc1ccccc1,0.7,0.7,0.672,-1.5,0.8,-4.9,3.1%
COc1cccc(/C=C/C(=O)Nc2ccc3[nH]c(=O)[nH]c3c2)c1,-3.0,-0.3,0.682,-0.2,3.0,-6.4,·
CNC(=S)N(Cc1ccc(OC)cc1)Cc1cc2cc(C)ccc2[nH]c1=O,1.4,-1.2,0.688,0.0,-2.1,-8.4,-7.7%
CC1(C)Cc2ccccc2C(COc2ccccc2)=N1,-4.0,-0.4,·,6.3,·,3.9,-7.1%
O=C(NNC(=O)c1ccccc1Br)c1ccc(Cl)cc1,2.3,0.4,0.735,-1.2,5.9,-2.5,6.6%

# Whole records as entered above.
# Results for `CC1(C)Cc2ccccc2C(COc2ccccc2)=N1` : HNF4A DNA FP = -4.0; Bfl-1 A1 inh = -0.4; Ecoli growth = ·; LANA-H2A inh = 6.3; UCH37 inh = ·; Beta2AR agonist = 3.9; Vif TR-FRET = -7.1%
# Results for `CCN(CC(=O)Nc1c(F)cccc1F)C(=O)Cc1ccccc1` : HNF4A DNA FP = 0.7; Bfl-1 A1 inh = 0.7; Ecoli growth = 0.672; LANA-H2A inh = -1.5; UCH37 inh = 0.8; Beta2AR agonist = -4.9; Vif TR-FRET = 3.1%

# Screens (PubChem)
